Screens deposited in PubChem by Broad Institute.
Myc binder – c-Myc (human) binding; small molecule microarray, His-c-Myc binding, anti-His fluorescence; P01106; 17,000 compounds, 1.5% hits; calls only;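 active = spot fluorescence over background with P-value below 7% in all four replicate spots, showing protein binding; compounds were printed on slides so no solution concentration is given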;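 also: score is binary with 100 for all four spots passing and 0 otherwise; about 2 pmol printed per array spot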
STAT3 SMM – binders of human STAT3; P40763; Small molecule microarray, His-STAT3 binding, anti-His fluorescence; calls only; 17,000 compounds, 0.2% hits; AID 624138;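 active = compounds whose four printed spots each show fluorescence over background unusually high for their array block, chance value under 7%; compounds were printed on slides so no solution concentration is given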;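 also: about 2 pmol printed per array spot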
Target sequence (P40763 whole entry, looked up): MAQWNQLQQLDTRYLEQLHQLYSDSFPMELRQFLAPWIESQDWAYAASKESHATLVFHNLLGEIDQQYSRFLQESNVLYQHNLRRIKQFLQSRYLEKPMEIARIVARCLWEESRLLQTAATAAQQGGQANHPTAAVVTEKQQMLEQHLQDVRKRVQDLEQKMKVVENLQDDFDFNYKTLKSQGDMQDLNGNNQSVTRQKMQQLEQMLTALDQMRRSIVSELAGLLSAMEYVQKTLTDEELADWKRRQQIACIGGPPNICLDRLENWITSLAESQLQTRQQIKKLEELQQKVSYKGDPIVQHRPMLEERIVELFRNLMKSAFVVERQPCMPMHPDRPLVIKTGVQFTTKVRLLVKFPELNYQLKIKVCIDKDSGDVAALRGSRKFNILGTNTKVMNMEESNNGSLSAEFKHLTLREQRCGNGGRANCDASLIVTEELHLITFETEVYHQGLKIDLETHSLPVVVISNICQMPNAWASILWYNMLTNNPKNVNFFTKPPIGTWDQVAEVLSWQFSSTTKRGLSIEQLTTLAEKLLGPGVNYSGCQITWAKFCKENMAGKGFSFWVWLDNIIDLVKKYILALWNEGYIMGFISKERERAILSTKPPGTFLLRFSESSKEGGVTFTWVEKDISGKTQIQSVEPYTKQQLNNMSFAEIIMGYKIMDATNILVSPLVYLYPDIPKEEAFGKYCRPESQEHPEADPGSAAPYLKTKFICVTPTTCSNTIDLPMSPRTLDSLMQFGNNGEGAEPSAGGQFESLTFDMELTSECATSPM
mut p53 SMM – mutant p53 (human) binding; small molecule microarray binding, anti-GST fluorescence; calls only; 17,000 compounds, 0.4% hits;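 active = compounds whose four printed spots each glow above background more than chance allows, each with a p-value under 7%; compounds were printed on slides so no solution concentration is given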;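 also: about 2 pmol printed per array spot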
ID4 SMM – ID4 (human) binding; small molecule microarray, Flag-ID4 binding, fluorescence F/B; 31,000 compounds, 1.2% hits; calls only; P47928;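 active = spot signal over background at p below 0.07 in all four prints; compounds were printed on slides so no solution concentration is given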;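 also: a binder raises fluorescence above local background on the spot; about 2 pmol printed per array spot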
Calls only; i = inactive; x = no result given; + = active, no number.

Sample of the layout (four entries):
Letter code: A = Myc binder; B = STAT3 SMM; C = mut p53 SMM; D = ID4 SMM
C[C@@H]1CN([C@H](C)CO)C(=O)Cc2cc(NS(=O)(=O)c3cccs3)ccc2O[C@H]1CN(C)Cc1ccccc1
  A = i | B = i | C = i | D = i

Cc1ccc(NC(=O)c2ccc(CSc3nnc(-c4ccc(NC(=O)c5ccccc5Cl)cc4)n3C)cc2)cc1
  A = i | B = i | C = i | D = i

COC(=O)C1=COC(OC2OC(CO)C(O)C(O)C2O)C2C1C(O)CC2(C)OC(C)=O (stereo unspecified)
  A = i | B = i | C = i | D = i

C[C@H]1CN([C@@H](C)CO)C(=O)c2cc(NC(=O)Nc3ccc(F)cc3)ccc2O[C@@H]1CN(C)C(=O)NC1CCCCC1
  A = i | B = i | C = i | D = i

The list itself (from the top)
Letter code: A = Myc binder; B = STAT3 SMM; C = mut p53 SMM; D = ID4 SMM
C[C@@H]1CN([C@H](C)CO)C(=O)Cc2cc(NS(=O)(=O)c3cccs3)ccc2O[C@H]1CN(C)Cc1ccccc1
  A = i | B = i | C = i | D = i

Cc1ccc(NC(=O)c2ccc(CSc3nnc(-c4ccc(NC(=O)c5ccccc5Cl)cc4)n3C)cc2)cc1
  A = i | B = i | C = i | D = i

COC(=O)C1=COC(OC2OC(CO)C(O)C(O)C2O)C2C1C(O)CC2(C)OC(C)=O (stereo unspecified)
  A = i | B = i | C = i | D = i

C[C@H]1CN([C@@H](C)CO)C(=O)c2cc(NC(=O)Nc3ccc(F)cc3)ccc2O[C@@H]1CN(C)C(=O)NC1CCCCC1
  A = i | B = i | C = i | D = i

Cc1noc(C)c1S(=O)(=O)Nc1ccc2c(c1)C(=O)N([C@H](C)CO)C[C@@H](C)[C@H](CN(C)C(=O)Nc1ccccc1)O2
  A = i | B = i | C = i | D = i

C[C@H](CO)N1C[C@H](C)[C@@H](CN(C)C(=O)Nc2cccc3ccccc23)Oc2c(NS(C)(=O)=O)cccc2C1=O
  A = i | B = i | C = i | D = i

CCC1NC(=O)c2cc(S(N)(=O)=O)c(Cl)cc2N1 (stereo unspecified)
  A = i | B = i | C = i | D = i

C[C@H]1CN([C@@H](C)CO)C(=O)Cc2cc(NC(=O)NC3CCCCC3)ccc2O[C@H]1CN(C)C(=O)NC1CCCCC1
  A = i | B = i | C = i | D = i

COc1ccc(NC(=O)Nc2cccc3c2O[C@@H](CN(C)C(=O)Nc2ccc(C(F)(F)F)cc2)[C@H](C)CN([C@@H](C)CO)C3=O)cc1
  A = i | B = i | C = i | D = x

Cc1nc(NCC2CCCO2)c2c(C)c(C)sc2n1 (stereo unspecified)
  A = i | B = i | C = i | D = i

Cc1noc(C)c1NC(=O)N(C)C[C@H]1Oc2ccc(NC(=O)Nc3ccc4c(c3)OCO4)cc2CC(=O)N([C@H](C)CO)C[C@@H]1C
  A = i | B = i | C = i | D = i

CCOc1ccccc1NC(=O)CSc1n[nH]c(N)n1
  A = i | B = i | C = i | D = i

CNC[C@@H]1Oc2c(NS(=O)(=O)c3ccc(Cl)cc3)cccc2C(=O)N([C@H](C)CO)C[C@H]1C
  A = i | B = i | C = i | D = i

Cc1noc(C)c1S(=O)(=O)N(C)C[C@@H]1Oc2ccc(NC(=O)Nc3ccc(C(F)(F)F)cc3)cc2CC(=O)N([C@H](C)CO)C[C@@H]1C
  A = i | B = i | C = i | D = i

C[C@H](CO)N1C[C@H](C)[C@H](CN(C)Cc2ccncc2)Oc2ncc(C#CCC3CCCC3)cc2C1=O
  A = i | B = i | C = i | D = i

C[C@H]1CN([C@@H](C)CO)C(=O)CCCn2cc(nn2)CO[C@H]1CN(C)C(=O)Nc1ccc(N2CCCCC2)cc1
  A = i | B = i | C = i | D = i

[N-]=[N+]=NCc1ccccc1C[C@]1(C(=O)NCC(O)CO)COC(c2ccc(OCCCO)cc2)=N1 (stereo partly specified)
  A = i | B = i | C = i | D = i

C[C@H]1CN([C@@H](C)CO)C(=O)Cc2cc(NC(=O)C3CC3)ccc2O[C@@H]1CN(C)C(=O)Nc1cccc2ccccc12
  A = i | B = i | C = i | D = i

Cc1noc(C)c1S(=O)(=O)Nc1cccc2c1O[C@@H](CN(C)Cc1ccc(C(=O)O)cc1)[C@@H](C)CN([C@H](C)CO)C2=O
  A = i | B = i | C = i | D = i

CCOC(=O)c1cc(NC(=O)CSc2nc3ccccc3s2)ccc1Cl
  A = i | B = i | C = i | D = i

C[C@@H]1CN([C@H](C)CO)C(=O)CCCn2cc(nn2)CO[C@H]1CN(C)C(=O)Oc1ccccc1
  A = i | B = i | C = i | D = x

CC(=O)Nc1nc(-c2ccccc2)nc(-c2ccccc2OC(C)=O)n1
  A = i | B = i | C = i | D = i

COC(=O)c1ccccc1NC(=O)NCc1ccc(C(=O)O)cc1
  A = i | B = i | C = i | D = +

COc1ccc(S(=O)(=O)NCc2ccco2)cc1OC
  A = i | B = i | C = i | D = i

C[C@H]1CN([C@@H](C)CO)C(=O)c2cccc(NC(=O)Nc3cccc4ccccc34)c2O[C@@H]1CN(C)S(=O)(=O)c1ccc(Cl)cc1
  A = i | B = i | C = i | D = i

Random excerpt: 7 records from the list
Letter code: A = Myc binder; B = STAT3 SMM; C = mut p53 SMM; D = ID4 SMM
COC(=O)C1=COC(OC2OC(CO)C(O)C(O)C2O)C2C1C(O)CC2(C)OC(C)=O (stereo unspecified)
  A = i | B = i | C = i | D = i

C[C@H](CO)N1C[C@H](C)[C@H](CN(C)Cc2ccncc2)Oc2ncc(C#CCC3CCCC3)cc2C1=O
  A = i | B = i | C = i | D = i

C[C@H](CO)N1C[C@H](C)[C@@H](CN(C)C(=O)Nc2cccc3ccccc23)Oc2c(NS(C)(=O)=O)cccc2C1=O
  A = i | B = i | C = i | D = i

Cc1nc(NCC2CCCO2)c2c(C)c(C)sc2n1 (stereo unspecified)
  A = i | B = i | C = i | D = i

C[C@@H]1CN([C@H](C)CO)C(=O)CCCn2cc(nn2)CO[C@H]1CN(C)C(=O)Oc1ccccc1
  A = i | B = i | C = i | D = x

[N-]=[N+]=NCc1ccccc1C[C@]1(C(=O)NCC(O)CO)COC(c2ccc(OCCCO)cc2)=N1 (stereo partly specified)
  A = i | B = i | C = i | D = i

CCC1NC(=O)c2cc(S(N)(=O)=O)c(Cl)cc2N1 (stereo unspecified)
  A = i | B = i | C = i | D = i

Not all compounds are listed; rates above refer to the full screens.
